motility: Vibrio cholerae motility inhibitors, OD read-out (AID 588778). Vibrio cholerae motility, OD read-out; higher % means a stronger effect; test concentration not given here; primary cut-off and reference of the scale not given here; strong numbers were not always called active. one-dose inhibition, %; IC50 in µg/mL for titrated hits. 10,000 tested, under 10 active; in the data active = confirmed in a dose series
motility viability: second read-out of motility, no call of its own (marks repeat the call); inhibition, %; measured here: bacterial viability at 10 ug/mL;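 higher means fewer living bacteria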
An asterisk follows results filed as active. An excerpt (hit frequency here may not be typical).

A first look (three entries):
#1 CC1(C)CC(=O)C2=C(C1)NC(Nc1nc3ccccc3s1)=NC21C(=O)Nc2ccccc21 (stereo unspecified)
#2 COC(=O)C1=C(C)NC(C)=C(C(=O)OC)C1c1ccccn1
#3 N#Cc1nc(/C=C/c2ccccc2)oc1N1CCOCC1

compound no.,1,2,3
motility,5%,-14%,5%
motility viability,-1,-6,1

The whole of this part, from the start:
#1 CC1(C)CC(=O)C2=C(C1)NC(Nc1nc3ccccc3s1)=NC21C(=O)Nc2ccccc21 (stereo unspecified)
#2 COC(=O)C1=C(C)NC(C)=C(C(=O)OC)C1c1ccccn1
#3 N#Cc1nc(/C=C/c2ccccc2)oc1N1CCOCC1
#4 CCN(CC)C(=O)N(Cc1ccccc1)c1ccccn1
#5 O=C(Nc1ccccc1C(F)(F)F)C(Cl)(Cl)Cl

compound no.,1,2,3,4,5
motility,5%,-14%,5%,12%,10%
motility viability,-1,-6,1,1,-2

#6 CCCCC(=O)Nc1ccc(NC(=S)NC(=O)CC23CC4CC(CC(C4)C2)C3)cc1OC
#7 COc1ccccc1OCC(=O)Nc1cccc(NC(=O)C23CC4CC(CC(C4)C2)C3)c1
#8 Cn1cnnc1-c1cccc(NS(=O)(=O)c2ccc(N3CCCC3=O)cc2)c1
#9 O=C(CCSc1ccc([N+](=O)[O-])cc1)Oc1ccc(Br)cc1
#10 O=[N+]([O-])c1cccc(/C=C/c2ccccc2)c1

compound no.,6,7,8,9,10
motility,-7%,-2%,-5%,10%,10%
motility viability,-2,-3,-2,1,2

#11 Cc1cccc(NSc2ccccc2[N+](=O)[O-])c1
#12 COc1ccc(CCNC(=S)NC(=O)c2ccccc2)cc1C
#13 O=C(NC(Cc1ccccc1)C(=O)N1CCN(c2ccccn2)CC1)c1ccco1 (stereo unspecified)
#14 Nc1nc(COc2ccc3ccccc3c2)cs1
#15 O=C(CCCOc1ccccc1)Nc1ccccc1-c1ccccc1

compound no.,11,12,13,14,15
motility,22%,-9%,-10%,22%,8%
motility viability,12,-5,-12,9,10

Two of the compounds above, as a markdown table.
| No. | structure | motility | motility viability |
| --- | --- | --- | --- |
| 11 | Cc1cccc(NSc2ccccc2[N+](=O)[O-])c1 | 22% | 12 |
| 12 | COc1ccc(CCNC(=S)NC(=O)c2ccccc2)cc1C | -9% | -5 |

More entries follow:
#16 Cn1nnnc1SCC(=O)c1ccc(O)c(O)c1
#17 O=C(CCc1ccccc1)NN1C(=O)C2CCCCC2C1=O (stereo unspecified)
#18 CCCC(=O)c1cc(F)c(N2CCN(C(=O)OCC)CC2)cc1C
#19 COc1cc(S(=O)(=O)Nc2ccccc2C(=O)O)c(OC)cc1Cl
#20 NS(=O)(=O)c1ccc(NC(=S)NC(=O)COc2ccc([N+](=O)[O-])cc2)cc1
#21 COc1ccc(OCc2nc(N)nc(Nc3cccc(C)c3C)n2)cc1
#22 Cc1c(Nc2ncnc3sc4c(c23)CCCC4)c(=O)n(-c2ccccc2)n1C

compound no.,16,17,18,19,20,21,22
motility,0%,3%,-7%,-3%,-15%,2%,17%
motility viability,-5,-6,-14,-5,-8,-5,24

Screening results deposited in PubChem BioAssay by Southern Research Institute.
